Screens (PubChem)
GALR2 ag: activates the human galanin receptor 2 | O43603 | GALR2-expressing cells, agonist activation read-out | activation, %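 (tested at 5 µM)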 | 140,000 compounds, 0.48% hits | AID 803;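 active = above mean plus 3 SD of all compounds, about 5% in these data, not always enough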;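 note: 0% = vehicle buffer wells and 100% = reference agonist at full effect; tested in CHO reporter cells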
Target sequence (O43603 whole entry, looked up): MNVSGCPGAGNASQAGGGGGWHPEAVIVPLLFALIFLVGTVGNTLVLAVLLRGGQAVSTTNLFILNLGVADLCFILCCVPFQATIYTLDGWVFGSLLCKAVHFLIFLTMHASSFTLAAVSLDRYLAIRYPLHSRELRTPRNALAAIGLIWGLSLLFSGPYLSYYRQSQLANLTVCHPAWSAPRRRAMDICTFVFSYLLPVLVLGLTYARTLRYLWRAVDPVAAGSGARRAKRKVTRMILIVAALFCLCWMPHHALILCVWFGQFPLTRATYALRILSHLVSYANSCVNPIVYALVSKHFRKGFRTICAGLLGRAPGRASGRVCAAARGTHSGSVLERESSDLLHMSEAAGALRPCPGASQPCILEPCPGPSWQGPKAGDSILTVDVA
Insulin prom inh: TRM-6 insulin promoter activity inhibition; 130,000 compounds, 0.9% hits; TRM-6 cells (human fetal islet line), insulin promoter-eGFP reporter, imaging; reporter expression induced with tamoxifen; inhibition, % at 2 µM;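 active = inhibition above the mean plus 3 SD, with well images judged a real hit on visual review, cut at about 60% in these data, passing the limit was not always enough; inconclusive = inhibition over the cutoff but images rejected on review; inactive = inhibition not above the cutoff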
RGS16-Gao HTS: RGS16-Galphao interaction regulator (human); O15492+P09471; bead-based flow cytometry RGS16-Galphao binding, fluorescence; actives lie on both sides; binding response (% of control), % at 10 µM; 220,000 compounds, 0.38% hits; AID 1441;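 active = below 25% or above 175%, edge rows of some plates excepted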;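 note: Galphao activated by GDP with aluminum fluoride before binding; 100% = wells without compound and 0% = beads without RGS; some results beyond the cut were filed as inactive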
Target sequence (O15492 whole entry, looked up): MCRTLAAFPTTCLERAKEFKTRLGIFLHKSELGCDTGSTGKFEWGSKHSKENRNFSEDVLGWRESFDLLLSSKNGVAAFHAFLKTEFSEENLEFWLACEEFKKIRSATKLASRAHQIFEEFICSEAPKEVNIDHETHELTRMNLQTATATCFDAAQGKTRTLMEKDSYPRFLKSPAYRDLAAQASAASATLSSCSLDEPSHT
Target sequence (P09471 whole entry, looked up): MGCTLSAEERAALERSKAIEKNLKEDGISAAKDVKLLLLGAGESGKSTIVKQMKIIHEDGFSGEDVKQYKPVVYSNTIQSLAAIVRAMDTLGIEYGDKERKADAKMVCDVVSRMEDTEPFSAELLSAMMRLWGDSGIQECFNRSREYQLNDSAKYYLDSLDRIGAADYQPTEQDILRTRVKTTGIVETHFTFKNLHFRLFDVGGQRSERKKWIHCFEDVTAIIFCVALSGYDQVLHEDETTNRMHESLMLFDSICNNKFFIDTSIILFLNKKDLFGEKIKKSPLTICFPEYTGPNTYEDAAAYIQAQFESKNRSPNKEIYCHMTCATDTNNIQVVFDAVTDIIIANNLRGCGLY
PKD1 kinase inh: inhibitors of human PKD1 kinase; 200,000 compounds, 0.056% hits; inhibition, %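 (about 10 µM by stock and volumes)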; AID 797; PKD1 kinase fluorescence polarization assay;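 active = inhibition of 50% or more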;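 note: controls were vehicle for no effect and a reference inhibitor for full effect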
HSV replic up: increases HSV replication in cells | maximum fold increase | 220,000 compounds, 0.005% hits | HSV replication augmentation in cells, fold increase;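 active = peak rise of 1.5-fold or more in the series; inconclusive = self-fluorescent or not available for retest; tested in PC3 cells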;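 note: first round at 10 µM; read as green reporter fluorescence; hits show the peak of a series up to 25 µM; 1 = signal of infected wells without compound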
Insulin prom inh cell count: second read-out of Insulin prom inh, no call of its own (marks repeat the call); normalized cell count, %; measured here: cell count, toxicity; reference of the scale not given here;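 cells exposed to compound for 48 h; stained nuclei by imaging scaled within each plate; lower means fewer cells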
HSV replic up primary fold: further read-out of HSV replic up, marked with its call; fold increase; compound at 10 µM; measured here: primary screen fold increase 10 uM; tested in PC3 cells;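 GFP signal in the first replicate; 1 = infected wells without compound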
* hit, by the source's call; i = inactive; u = inconclusive; x = no result given.

SMILES	GALR2 ag	Insulin prom inh	Insulin prom inh cell count	RGS16-Gao HTS	PKD1 kinase inh	HSV replic up	HSV replic up primary fold
Cc1ccc(C)c(S(=O)(=O)N2CCN(C(=O)c3cnccn3)CC2)c1	-1.2	34	68	93	-1	i	1.1
CCOC(=O)CN1C(=O)C(C)(C)Oc2ccc(C(=O)Nc3ccccc3)cc21	-1.7	x	x	103	4	i	0.86
O=C(CCC1CCCCC1)NCc1ccc(F)cc1	-1.1	-38	111	109	-6	i	0.99
Cc1ccc2nc(NC(=S)NC(=O)c3ccco3)sc2c1	0.9	-17	99	107	-2	i	0.94
CCOc1ccc2nc(NC(=O)COc3ccc(N(C)S(=O)(=O)c4ccc(C)cc4)cc3)sc2c1	x	x	x	91	x	i	0.86
COc1cc(OC)c(-c2nn3c(C4CCCCC4)nnc3s2)cc1OC	2.5	-79	116	105	-1	i	0.71
COc1cccc(C(=O)Oc2cc3c4c(c2)C(C)=CC(C)(C)N4C(=O)C3=O)c1	1.2	-20	98	92	-2	i	0.94
O=C(CSc1ccc(-c2ccco2)nn1)NCCc1ccccc1	x	42	103	105	6	i	1
CCCCCCC1(C)NC(=S)N(c2ccccc2)N1 (stereo not given)	x	31	99	102	4	i	1
O=C(CCSc1nnc(-c2ccco2)o1)Nc1ccc(Cl)cc1	-1.1	-8	103	104	-14	i	0.81

Later entries
SMILES	GALR2 ag	Insulin prom inh	Insulin prom inh cell count	RGS16-Gao HTS	PKD1 kinase inh	HSV replic up	HSV replic up primary fold
CCO[C@H]1OC(C(=O)NCc2nc3ccccc3[nH]2)=C[C@@H](C)[C@@H]1CCCO	x	x	x	110	-3	i	0.83
O=C(O)/C(=C\c1cccc(F)c1)c1ccc(S(=O)(=O)N2CCCCC2)s1	0.0	x	x	101	-3	i	0.9
CCCN(CCC)CCCn1c(=O)[nH]c2ccccc21	x	x	x	102	-2	i	0.94
COCCn1c(SCCCC(=O)c2ccc(Br)cc2)nnc1-c1ccncc1	-2.1	-34	76	99	-2	x	x
Cn1c(CNC(=O)c2ccccc2F)nnc1SCc1ccc(F)cc1	-0.6	-15	85	102	8	i	0.86
Cc1ccccc1NC(=S)N/N=C/C(C)c1ccccc1 (stereo not given)	x	-7	109	101	6	i	0.89
CCN(Cc1ccccc1)C(=O)CSc1nc(C)cc(=O)[nH]1	x	-18	92	89	0	i	0.9
CCN1CCN(C(=O)CN(c2ccccc2C)S(C)(=O)=O)CC1	-1.1	-12	132	105	-17	i	1.1
O=C(Nc1nc2ccccc2[nH]1)c1cccs1	x	-50	107	38	1	i	0.92
Cc1ccc(C(=O)C(OC(=O)CN2C(=O)c3ccccc3C2=O)c2ccccc2)cc1C (stereo not given)	-1.6	25	124	101	7	i	0.95

Further structures follow:
SMILES	GALR2 ag	Insulin prom inh	Insulin prom inh cell count	RGS16-Gao HTS	PKD1 kinase inh	HSV replic up	HSV replic up primary fold
O=C(/C=C/c1ccccc1[N+](=O)[O-])NC1CCCC1	x	19	104	100	3	i	0.99
Cc1ccc(N(C=NC#N)CC(=O)N2CCN(c3ccccc3)CC2)cc1	-1.4	-21	85	94	-11	i	1
O=C(NC1CCCc2ccccc21)c1cc(S(=O)(=O)N2CCOCC2)ccc1F (stereo not given)	x	-27	110	104	-10	i	0.92
O=C(CSc1nc2cccnc2n1Cc1ccccc1)NCc1ccco1	0.2	x	x	93	4	i	0.99
Cc1ccc(/C=C/C(=O)NCc2ccncc2)cc1	-2.5	9	168	99	-2	i	0.95
Nc1nc(SCC(=O)Nc2ccc(S(N)(=O)=O)cc2)n[nH]1	x	x	x	104	-5	i	0.96
CSc1ccc(S(=O)(=O)NCc2ccc(Cl)cc2Cl)cc1	-2.0	48	98	93	3	i	0.59
CCc1cccc(C)c1NC(=S)NCC(c1cccnc1)N(C)C (stereo not given)	x	13	119	104	0	i	0.67
O=C(COC(=O)c1ccc(O)cc1O)NC1CCS(=O)(=O)C1 (stereo not given)	x	x	x	98	x	i	0.98
O=C(NCCCn1ccnc1)c1ccc(Cl)cc1[N+](=O)[O-]	x	x	x	92	-5	i	1.1

The list goes on:
SMILES	GALR2 ag	Insulin prom inh	Insulin prom inh cell count	RGS16-Gao HTS	PKD1 kinase inh	HSV replic up	HSV replic up primary fold
COc1ccc(CC(=O)Nc2nnc(-c3cccc([N+](=O)[O-])c3)s2)cc1	-0.9	20	133	102	9	x	x
Cc1nnc(C)c2c(C)n(-c3cccc4cccnc34)c(C)c12	x	19	136	104	-8	i	1.1
CCN1C=C(Cc2ccccc2C)C2=C(C1)C(c1ccccc1C)C(C#N)=C(N)O2 (stereo not given)	-1.5	7	121	99	-1	i	0.97
O=C(Nc1cc(=O)[nH]c(=O)[nH]1)c1cccc(Br)c1	x	-29	83	125	-7	i	0.67
Cc1cccc(C2=NNC(=O)C(c3ccc(Cl)cc3)C2)c1 (stereo not given)	x	100*	23*	121	4	i	0.98
Cc1cc(C)nc(N(C#N)Cc2ccccc2C)n1	x	x	x	115	-3	i	0.97
Cc1cc(C)c(C#N)c(SCS(=O)Cc2ccccc2)n1 (stereo not given)	-1.1	18	79	103	-5	i	1
CCc1ccc(S(=O)(=O)N2CC(=O)Nc3ccccc32)cc1	-1.3	19	172	102	1	i	1
Cc1ccc(CCN2CC(C(=O)N3CCN(c4ccc(F)cc4)CC3)CC2=O)cc1 (stereo not given)	-2.1	3	76	91	-5	i	1.1
COc1ccc(OC)c(C2CC(=O)c3c([nH]c(C(=O)OC(C)C)c3C)C2)c1 (stereo not given)	0.7	x	x	102	-13	i	0.66

Later entries
SMILES	GALR2 ag	Insulin prom inh	Insulin prom inh cell count	RGS16-Gao HTS	PKD1 kinase inh	HSV replic up	HSV replic up primary fold
O=C(NC1CCCCCC1)C1CCN(S(=O)(=O)c2ccc(F)cc2)CC1	-3.2	x	x	106	-9	i	0.89
COc1ccc([N+](=O)[O-])cc1NC(=O)c1ccc(CN(c2ccccc2)S(C)(=O)=O)cc1	0.0	-391	62	26	-3	i	0.91
Fc1ccc(Cn2nnnc2C(c2ccc(Cl)cc2)N2CCSCC2)cc1 (stereo not given)	0.2	-21	69	85	-3	i	1.1
CN(C)C(=O)/C(C#N)=C\c1cc(Br)c(Sc2ccc(Cl)cc2)o1	0.9	-30	93	101	4	i	0.74
COc1ccc(OCCSCc2nnc(NC(=O)Nc3ccc(Cl)cc3)s2)cc1	-0.3	-47	118	103	-6	i	0.94
CCSc1oc(-c2ccccc2)nc1S(=O)(=O)c1ccccc1	-1.4	60	50	104	-10	i	1
COc1cc(NC(=O)CSc2nnc(Cn3nnc4ccccc43)n2C)cc(OC)c1	-2.4	-469	69	74	-5	i	1
CC1CCN(CC(=O)NCc2ccco2)CC1	x	36	54	99	-4	i	0.98
O=C(NCCc1csc(-c2cccnc2)n1)c1ccco1	-1.7	x	x	103	4	i	0.96
CCn1c(C2CC(=O)N(c3cc(C)cc(C)c3)C2)nc2ccccc21 (stereo not given)	-1.7	x	x	82	-3	i	0.9

In the list so far, these contain a thiophene ring, fused or not:
SMILES	GALR2 ag	Insulin prom inh	Insulin prom inh cell count	RGS16-Gao HTS	PKD1 kinase inh	HSV replic up	HSV replic up primary fold
O=C(O)/C(=C\c1cccc(F)c1)c1ccc(S(=O)(=O)N2CCCCC2)s1	0.0	x	x	101	-3	i	0.9
O=C(Nc1nc2ccccc2[nH]1)c1cccs1	x	-50	107	38	1	i	0.92

Next section.
SMILES	GALR2 ag	Insulin prom inh	Insulin prom inh cell count	RGS16-Gao HTS	PKD1 kinase inh	HSV replic up	HSV replic up primary fold
CCOC(=O)c1nc2nc(C)cc(=O)n2[nH]1	-0.7	x	x	105	0	i	0.95
Cc1ccc(O)c(N=Cc2sc3ccccc3c2Cl)c1	-0.2	31	134	117	-5	i	1.1
COc1cnc(NS(=O)(=O)c2ccc(N)cc2)nc1	-0.4	-36	81	56	-12	i	0.85
O=C(CN1C(=O)c2ccccc2C1=O)NCC(=O)OCC(=O)c1ccc(Cl)cc1	-1.8	22	98	115	-3	i	1
Cc1c(/C(O)=C2\C(=O)C(=O)N(CCN(C)C)C2c2cccs2)cnn1-c1ccccc1 (stereo not given)	-1.0	3	100	100	-1	i	0.9
Cc1ccc(C(N)=Nc2ccccc2)cc1	x	x	x	103	x	i	1
CCn1cc(C2=NCC(C)O2)c2ccccc21 (stereo not given)	-2.6	0	109	103	-4	i	0.94
CCOc1cc2[nH]c(=O)n(Cc3cccc(OC)c3)c(=O)c2cc1OCC	0.0	x	x	101	0	i	0.82
CCCOC(=O)C1=C(C)NC2=C(C(=O)C(C(=O)OC)C(C)C2)C1c1ccc(N(CC)CC)cc1 (stereo not given)	0.1	37	63	110	-7	i	0.95
COc1ccc(CN2C(=O)CC(C(=O)NCCc3ccc(S(N)(=O)=O)cc3)SC2=Nc2ccccc2)cc1 (stereo not given)	x	x	x	106	3	i	0.81

Carrying on.
SMILES	GALR2 ag	Insulin prom inh	Insulin prom inh cell count	RGS16-Gao HTS	PKD1 kinase inh	HSV replic up	HSV replic up primary fold
COCC1CCN(Cc2cn(Cc3ccccc3)nc2-c2cc3ccccc3o2)CC1	x	x	x	111	-3	i	0.76
Cc1c(C(=O)NCc2ccc(F)cc2)c(-c2ccccc2)nn1-c1ccccc1	-1.6	13	73	106	-2	i	0.87
CC(C)[C@@H]1NC(=O)c2cc([N+](=O)[O-])cc(I)c2NCCC[C@@H](C(=O)NC(CC(=O)O)C(N)=O)NC(=O)[C@H](CO)NC1=O (stereo not given in full)	-0.6	36	106	104	0	i	1
CCOC(=O)C1=C(c2ccccc2)Nc2ncnn2C1c1ccc(C(=O)O)cc1 (stereo not given)	x	x	x	101	x	i	0.99
Cc1cc(C)c(C#N)c(SCC(=O)c2ccc(Cl)cc2Cl)n1	-1.2	69	197	103	-4	i	0.8
CCCn1c(SCC(=O)Nc2sc(C)c(C)c2C(=O)OCC)nc2c1c(=O)n(C)c(=O)n2C	-1.7	x	x	102	-3	i	0.89
COc1cccc(NC(=S)C(C#N)=C2N(C)c3ccccc3N2C)c1	x	x	x	108	-1	i	0.97
NC(=S)N=Nc1c(O)n(CCCl)c2ccc(Br)cc12	x	x	x	103	x	i	1
Cc1ccc(NC(=O)CCNC(=O)c2ccco2)cc1F	x	x	x	100	-2	i	0.92
N#CC1=C(N)Oc2cc(O)ccc2C1c1cccs1 (stereo not given)	-1.7	-24	101	118	-1	u	x

Given with two lines to a compound: entries from further up
The line under a structure holds: GALR2 ag | Insulin prom inh | Insulin prom inh cell count | RGS16-Gao HTS | PKD1 kinase inh | HSV replic up | HSV replic up primary fold
- Cc1ccc(NC(=O)CCNC(=O)c2ccco2)cc1F
 : x | x | x | 100 | -2 | i | 0.92
- N#CC1=C(N)Oc2cc(O)ccc2C1c1cccs1 (stereo not given)
 : -1.7 | -24 | 101 | 118 | -1 | u | x

The list continues.
SMILES	GALR2 ag	Insulin prom inh	Insulin prom inh cell count	RGS16-Gao HTS	PKD1 kinase inh	HSV replic up	HSV replic up primary fold
Cc1[nH]c2ccccc2c1/C=N/NC(=O)c1cccs1	x	x	x	110	-6	i	0.83
COCCNCCCCOc1ccc(Br)cc1C	-1.4	-26	66	125	-11	i	0.96
O=C(Nc1ccc(Cl)cc1)/C(=C/c1cccc(O)c1)c1nc2ccccc2s1	0.4	-3	90	98	4	i	0.63
O=C(COC(=O)c1cccs1)Nc1ccccc1	-1.6	x	x	99	-13	i	1.1
NC(=O)NC(=O)c1nccnc1C(=O)O	x	x	x	102	x	i	1
COc1ccc(-c2c(C)oc3c(CN4CCN(CCO)CC4)c(O)ccc3c2=O)cc1OC	-1.2	-3	137	99	2	x	x
CC(C)CCNC(=O)CSc1nc2ccsc2c(=O)n1NC(=O)c1ccccc1	-0.8	11	81	99	-9	i	0.95
CCCCCc1c(C)nc(Nc2nc(C)c3cc(OC)ccc3n2)[nH]c1=O	-1.7	x	x	100	-7	i	0.74
Cc1ccc(P(=O)(O)c2ccc(C)cc2)cc1	-1.1	x	x	101	-8	i	1.2
Cc1ccc2oc(-c3cccc(NC(=O)Cc4cccs4)c3)nc2c1	-1.0	13	125	99	-2	i	0.84

Other structures.
SMILES	GALR2 ag	Insulin prom inh	Insulin prom inh cell count	RGS16-Gao HTS	PKD1 kinase inh	HSV replic up	HSV replic up primary fold
CC(Sc1nnc(Cc2ccc([N+](=O)[O-])cc2)o1)C(N)=O (stereo not given)	-0.7	-7	75	112	-3	i	0.87
S=C(NCCc1ccc(Cl)cc1)NC1CC1	x	x	x	102	5	i	0.85
CCc1cc(C(=O)OC)c(NC(=O)C2CC(=O)NN2Cc2ccccc2)s1 (stereo not given)	-2.0	-97	109	101	-12	i	1
O=C(/C=C/c1ccco1)NC(=S)Nc1nc(-c2ccc3ccccc3c2)cs1	-0.2	x	x	99	6	i	1.1
COc1cc2c(cc1OC)CN(C(=S)Nc1cccc(Cl)c1C)CC2	x	x	x	95	x	i	0.93
